Tg IFNy HTS = inhibitors of Toxoplasma gondii growth with IFN-gamma | Toxoplasma gondii growth in IFN-gamma-treated host cells; hits give low values; reference of the scale not given here | activity change, negative = inhibition, %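 (about 20 µM by stock and volumes)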 | 3.8% of 69,000 active;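 active = below -70%; inconclusive = fit judged invalid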;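 also: host cells are HeLa cells infected with Toxoplasma gondii; parasite growth read as luciferase light; one replicate is shown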
* = called active by the depositor; ? = inconclusive; & = joins results of further samples.

SMILES | Tg IFNy HTS
Cc1ccc(C(=O)NCCC(=O)N2CCc3nc(C)n(C)c(=O)c3CC2)cc1 | 30.9
CC(=O)NC1C(OCCOc2ccc(Cl)cc2Cl)OC(COC(C)=O)C(OC(C)=O)C1OC(C)=O (stereo not drawn) | 6.9
CC(c1ccc(-c2nc3ccccc3n2CCO)cc1)N1CCOCC1 (stereo not drawn) | -6.1
Cc1ccc2cc(C3CC(c4ccc(Br)cc4)=NN3)c(Cl)nc2c1 (stereo not drawn) | -11.5
CC(C)CN1C(=O)C2(CC2C(=O)N2CCN(C)CC2)c2ccccc21 (stereo not drawn) | -40.8
CCn1c(CN2CCC(C(=O)c3cccnc3)CC2)cnc1SC | 16.2
Cc1cn2cc(CNC(=O)c3ccc(C4CCCO4)s3)nc2s1 (stereo not drawn) | -2.2
Cc1cccc(C(C(=O)NCc2cnc(C)cn2)N(C)C)c1 (stereo not drawn) | 5.9
Clc1ccc(Sc2cccc(Cl)c2Cn2cccc2)cc1 | 40.9
CC(=O)Nc1ccc(C(=O)N(CCC(C)C)C2(C(=O)NCc3ccccc3)CCN(C(C)=O)CC2)cc1 | 1.3
CC1CCCCC12NC(=O)N(CC(=O)N1CCN(Cc3ccccn3)CC1)C2=O (stereo not drawn) | 13.9
COC(=O)C1CN(Cc2ccccc2)CCC1=O (stereo not drawn) | -21.6
NC(=O)C(=O)NC1CCCN(Cc2ccc(F)cc2)C1 (stereo not drawn) | -4.3
COc1ccc2c3c([nH]c2c1)[C@@H](CO)N(C(=O)NC1CCCC1)CC31CN(C(=O)Nc2cccc(F)c2)C1 | 478.5
CN(C)C1(C(=O)NCCn2cnnc2)Cc2ccccc2C1 | -26.3
CCC1c2ccsc2CCN1C(=O)c1cc(C2CCN(C(=O)C3CCCC3)CC2)no1 (stereo not drawn) | 4.0
COCCC(=O)NCc1ccc(-c2ccnc3nc(C(F)(F)F)nn23)cc1 | 30.5
FC(F)(F)c1cc(Cl)c2nsnc2c1 | 53.6
COc1cc2c3cc1Oc1cc(ccc1O)C[C@@H]1c4c(cc(OC)c(O)c4Oc4ccc(cc4)C[C@@H]3N(C)CC2)CC[N+]1(C)C | 11.2&7.2
CC(c1cccc(-c2ccc(C(N)=O)cn2)c1)N(C)C (stereo not drawn) | -45.8
CCOc1ccc(C(O)Cn2c(=N)n(CCN3CCCCC3)c3ccccc32)cc1 (stereo not drawn) | -51.5
COCc1[nH]n2c(=O)cc(Cn3cccn3)nc2c1-c1ccc(OC)cc1 | -13.8
COc1ccc(S(=O)(=O)N(C)C[C@@H]2Oc3c(cccc3N(C)C)C(=O)N([C@@H](C)CO)C[C@H]2C)cc1 | 16.4
COCCN1CCC2(CC1)CC(NCC1CC1)c1ccccc12 (stereo not drawn) | -21.8
CCN1C(=O)C2(CCOCC2)c2cc(NC(=O)c3ccc[nH]3)ccc21 | 45.5
The results go on:
SMILES | Tg IFNy HTS
O=C(O)CCC/C=C\C[C@@H]1CO[C@H](C(F)(F)F)O[C@@H]1c1ccccc1O | 8.2&30.5
COc1cc(N2CCC(O)(c3ccccc3C)C2)ncn1 (stereo not drawn) | -26.1
CN(C)CCN1C2(CCN(C(=O)c3ccno3)C2)c2ccccc2S1(=O)=O (stereo not drawn) | 205.1
CC(Oc1ccc(Cl)cc1Cl)C(=O)Nc1ncccn1 (stereo not drawn) | -38.5
Cc1ccccc1S(=O)(=O)Nc1ccc2c(c1)C(=O)N(C)[C@@H]1CC[C@H](CC(=O)O)O[C@@H]1CO2 | 11.4
CCOC(=O)c1noc2nc(C)n(Cc3nc(-c4ccc(OC)cc4OC)oc3C)c(=O)c12 | 164.7
CO[C@@H]1CN(C)C(=O)c2ccc(NC(=O)Nc3ccccc3)cc2OC[C@H](C)N(C(=O)CC2CC2)C[C@@H]1C | 144.5
C/C=C/c1ccc([C@H]2[C@@H](CO)N(c3nc(CC)cs3)[C@H]2C#N)cc1 | 3.1
COCc1cc(O)c(O)c(O)c1-c1c(COC)cc(O)c(O)c1O | -1.1
Cc1noc(C)c1C(=O)NC(C)CC1=CCCN(CCCF)C1 (stereo not drawn) | -1.3
COc1ccc(-c2noc(-c3c(O)c4ccc(F)cc4[nH]c3=O)n2)cc1 | -32.9
Cc1ccc2nc(Cc3ccc(N)cc3)oc2c1 | -8.4
CCOc1ccc(Nc2nc(-c3ccc(OC)cc3)nc3ccccc23)cc1 | -42.6
Cc1ccc(C(=O)N2CC(C(=O)NCc3cccs3)C3(CCOCC3)C2)cc1 (stereo not drawn) | 274.6
O=S(=O)(c1cccs1)N1CCC2(CC1)NCCN=C2NCc1ccccc1Cl | 14.1
COc1ccc(CCNC(=O)C2=C(C)C(=O)OC23CCN(S(C)(=O)=O)CC3)cc1OC | 24.9
COc1cc(C)c(-c2csc(NC(=O)CCc3c(C)nc(N)nc3C)n2)cc1C | 1.8
Cc1ccnn1CCC(=O)N1CCC(C(=O)c2ccnn2C)CC1 | -4.8
Cc1ccc2c(C)nc(N3CCCC(C(=O)N4CCC(Oc5ccccc5F)CC4)C3)nc2c1 (stereo not drawn) | -2.6
O=C(c1cnccn1)N1CCC2(CC1)CCN(c1ncccn1)C2 | -7.0
CCOC(=O)[C@@]12CC=CCN(C(=O)Cc3cccs3)[C@@H]1CCC2 | 24.4
Cc1cc(C)cc(N(CC(=O)NCc2ccco2)C(=O)c2snc(C(N)=O)c2N)c1 | -3.7
O=C(Cn1c(=O)cc(-c2nc(C3CC3)no2)c2ccccc21)NCc1ccco1 | 4.6
C[C@@H]1CN([C@H](C)CO)S(=O)(=O)c2ccc(-c3ccc(F)cc3)cc2O[C@@H]1CN(C)Cc1ccccc1C(=O)O | 256.1
CSc1cccc(NC(=O)Cn2c(=O)cc(C(=O)N3CCOCC3)c3ccccc32)c1 | 12.3
The list goes on:
SMILES | Tg IFNy HTS
CC(C)NC(=O)Nc1ccc2c(c1)C(=O)N(C)[C@H]1CC[C@@H](CC(=O)NCc3ccc(F)cc3)O[C@H]1CO2 | -44.9
Cc1ccc(CN(C(=O)c2cnc3cccc(C)n3c2=O)C2CC2)s1 | -25.6
Cc1ccc(N2CCOCC3(CCCN(C(=O)N(C)C)C3)C2)nn1 (stereo not drawn) | 3.6
Cc1ccc(Cn2c(C)cc(C)c(C#N)c2=O)cc1 | 13.1
O=C(Nc1ccccc1N1CCCCC1)c1nsc(Cl)c1Cl | -19.6
O=C(NC1CCC(n2cnnc2)CC1)c1ccc(-c2ccccc2)[nH]1 (stereo not drawn) | 3.5
C[C@H]1CN([C@@H](C)CO)C(=O)c2ccccc2-c2ccccc2CO[C@@H]1CN(C)S(=O)(=O)c1ccc([N+](=O)[O-])cc1 | 0.8
Cc1noc(-c2ccnc(-n3ncc(C(=O)NCCc4c[nH]c5ccccc45)c3C)c2)n1 | 3.1
CC(=O)NC[C@H]1[C@H](c2ccc(C3=CCCC3)cc2)[C@@H](CO)N1Cc1cccnc1 | 15.8
CCNC(=O)[C@H]1O[C@@H](n2cnc3c(N)nc(NCCc4ccc(CCC(=O)O)cc4)nc32)[C@@H](O)[C@@H]1O | 22.3
O=C([C@H]1CCCO1)N1CCN(c2nc(-c3ccccc3)nc3c2CCC3)CC1 | -12.2
CN(Cc1ccsc1)Cc1cc(-c2ccncc2)no1 | 5.9
CC1CN(C)C(C)c2c1oc1ccc(N)cc21 (stereo not drawn) | 1.8
CCC(=O)Nc1cccc(C(=O)NCCS(C)(=O)=O)c1 | 3.4
C=CCn1c(=O)c(C(=O)Nc2ccc(F)cc2C)c(O)c2ccccc21 | 192.7
CC(C)NC(=O)N1[C@H](C#N)[C@@H](c2ccccc2-c2ccc(F)cc2)[C@@H]1CO | 9.8
CN(C)[C@@H]1C[C@@H](CO)N(C2CCC3(CCNCC3)CC2)C1 | 20.2
O=c1c2c(c1=O)N(CCP(=O)(O)O)CCCN2 | 9.5
COc1ccccc1-c1ncc(CN2CCN3C(=O)CNC(=O)C3C2)s1 (stereo not drawn) | -37.3
O=C(CN1Cc2ccccc2OC(c2ccsc2)C1)NCc1cccc(-n2cccn2)c1 (stereo not drawn) | -12.1
C=CCNc1ccccc1C(=O)N[C@H](C(N)=O)C(C)C | 4.0
CC1CCc2onc(C(=O)N3CCn4cc(C(F)(F)F)nc4C3)c2C1 (stereo not drawn) | -12.9
O=C(NCc1cccnc1)[C@@]12COC[C@@H]1CN(c1ncc(F)cn1)C2 | 80.9
O=C(NC(c1ccc(Cl)cc1)c1cccnc1)c1nn2cccnc2c1Cl (stereo not drawn) | 6.1
O=C1CCCN1CCC(=O)N1CCOC(c2ccc(Cl)c(Cl)c2)C1 (stereo not drawn) | -11.3

Reprinted from the part before: 2 compounds, then new ones.
SMILES | Tg IFNy HTS
O=C(NC(c1ccc(Cl)cc1)c1cccnc1)c1nn2cccnc2c1Cl (stereo not drawn) | 6.1
O=C1CCCN1CCC(=O)N1CCOC(c2ccc(Cl)c(Cl)c2)C1 (stereo not drawn) | -11.3
CC(C)N1CCC(N2CCC(C(=O)N3CCOCC3)CC2)CC1 | -37.4
N#Cc1c(NC(=O)CSc2nc3ccccc3o2)sc2c1CCC2 | 130.1
Cc1ccsc1CN(CCNC(=O)c1cccs1)Cc1ccccn1 | 0.8
CCS(=O)(=O)N1CCc2ncnc(C3CCOC3)c2CC1 (stereo not drawn) | 8.8
COCCN1CCC2(CC1)CC(c1ccncc1)C(=O)N2 (stereo not drawn) | -17.8
O=C(NCC1CC1)C1CCC2(CCN(Cc3ccccn3)CC2)O1 (stereo not drawn) | 2.2
C[C@H](CO)N1C[C@H](C)[C@@H](CN(C)C(=O)Cc2cccnc2)Oc2cc(C#Cc3ccccc3F)ccc2S1(=O)=O | -107.7*
Cc1nccn1-c1ccc(NC(=O)c2ccn(C(F)F)n2)cc1 | 81.5
N#C[C@@H]1[C@@H](c2ccc(C#Cc3cccnc3)cc2)[C@@H](CO)N1C(=O)NC1CCCCC1 | -44.5
CC/C=C(\C)CN1CCC(CNC(=O)c2occc2C)C1 (stereo not drawn) | -22.1
Cn1c(N2CC[C@H](O)C2)nc2cc(C(=O)N3CCC4(CCCO4)CC3)ccc21 | 0.5
COc1ccc(CN2CCC3(CC2)CC3C(=O)NCc2ccccc2C(F)(F)F)cc1C (stereo not drawn) | -3.3
COCC(C)(C)CNC(=O)c1c(C)cc(C)[nH]c1=O | -4.5
CC1=Cn2c(=O)c3ccccc3c(=O)n2C1 | 7.1
CCOC(=O)c1c(NC(=O)CCn2cnc3ccccc3c2=O)sc(C)c1C | -21.0
COc1cccc(-c2nc(Cn3nnc(C(=O)Nc4ccccc4F)c3C)c(C)o2)c1OC | 69.6
COc1cc2c(cc1NS(C)(=O)=O)C(c1ccncc1F)CC(=O)N2 (stereo not drawn) | 12.7
O=C(Cc1ccccc1)N1CC[C@@H]2[C@@H](CO)Nc3ccc(C#Cc4cccc(F)c4)cc3[C@@H]21 | 16.2
CN(Cc1cnn(-c2ccc(F)cc2)c1)Cc1cn(C)nc1-c1ccccc1F | 6.5
Nc1cc(Nc2ccc(S(N)(=O)=O)cc2)ncn1 | -39.4
CCOc1ccc(NC(=O)N2CCC3(CC2)Nc2ccccc2-n2cccc23)cc1 | 225.9
O=C(C[C@H]1CC[C@H]2[C@@H](COC[C@H](O)CN2Cc2ccc(C(F)(F)F)cc2)O1)N1CCc2ccccc2C1 | -21.6
O=C1C[C@H](c2ccccc2)C(=O)N[C@@H](c2ccc(F)cc2)C/C=C\CCN1 | -22.2
O=C(C1CC1)N1Cc2ccccc2C2(CCNCC2)C1 | 61.8
COc1cccc(-c2nnn(CC(=O)NC3CC(=O)N(c4ccc(F)cc4)C3)n2)c1 (stereo not drawn) | -5.6

By substructure: those above with an aryl thioether with sulfur outside any ring (4)
SMILES | Tg IFNy HTS
CCn1c(CN2CCC(C(=O)c3cccnc3)CC2)cnc1SC | 16.2
Clc1ccc(Sc2cccc(Cl)c2Cn2cccc2)cc1 | 40.9
CSc1cccc(NC(=O)Cn2c(=O)cc(C(=O)N3CCOCC3)c3ccccc32)c1 | 12.3
N#Cc1c(NC(=O)CSc2nc3ccccc3o2)sc2c1CCC2 | 130.1

(further entries)
SMILES | Tg IFNy HTS
CC(C)c1cccc(NC(=O)C[C@H]2CC[C@H]3[C@@H](COc4ccc(NS(=O)(=O)c5ccccc5Cl)cc4C(=O)N3C)O2)c1 | ?
Cc1ccccc1-c1noc(CCCC(=O)N2C[C@H]3CC[C@H]2C3)n1 | 30.9
C[C@H]1CC(=O)N[C@H](c2ccccc2)C/C=C\C[C@@H](c2ccc3c(c2)OCO3)NC1=O | -49.9
CC1(C(=O)NCc2nnc3n2CCCCC3)CC(c2ccccc2Cl)=NO1 (stereo not drawn) | -0.6
N#Cc1c(-c2ccccc2)cc(-c2ccccc2)nc1SCc1nnc(-c2ccccc2)o1 | -100.5*
Cc1ccc(NC(=O)[C@H]2C[C@H](C(=O)O)CN(Cc3cccc(F)c3C)C2)cn1 | 18.4
CO[C@@H]1CN(C)C(=O)c2cc(NC(=O)Nc3c(C)noc3C)ccc2OC[C@@H](C)NC[C@H]1C | 52.2
Cc1cncc(C(=O)N2CCCn3nnc(CN4CCCCC4)c3C2)c1 | -7.1
Cc1cc(C)n(C(C)C(=O)Nc2cccc(CN3CCC(C)CC3)c2)n1 (stereo not drawn) | 2.3
CCOCCOC(=O)C(C)Oc1ccc(Oc2ncc(Cl)cc2Cl)cc1 (stereo not drawn) | 41.8
Cc1ccc(-n2[nH]c(C)c(CC(=O)O)c2=O)cc1 | 77.6
COc1ccc(CNCCCSc2ncccn2)cc1 | 19.8
O=S(=O)(NCc1ccccc1)Nc1ccccc1-n1cccc1 | 31.5
Cc1nnc(N2CCCC3(CN(C(=O)CO)CCO3)C2)o1 (stereo not drawn) | -24.7
COC(=O)c1cc(C)nc2c1c(=O)n(Cc1nc(-c3ccccc3Cl)oc1C)c(=O)n2C | 8.3
Cc1nccn1CCn1nc(C2CCNCC2)n(Cc2ccccc2)c1=O | 8.0

Sorted by length of the SMILES (smallest number first): some entries from above
SMILES | Tg IFNy HTS
Cc1cncc(C(=O)N2CCCn3nnc(CN4CCCCC4)c3C2)c1 | -7.1
Cc1ccccc1-c1noc(CCCC(=O)N2C[C@H]3CC[C@H]2C3)n1 | 30.9
C[C@H]1CC(=O)N[C@H](c2ccccc2)C/C=C\C[C@@H](c2ccc3c(c2)OCO3)NC1=O | -49.9
CC(C)c1cccc(NC(=O)C[C@H]2CC[C@H]3[C@@H](COc4ccc(NS(=O)(=O)c5ccccc5Cl)cc4C(=O)N3C)O2)c1 | ?

Not all compounds are listed (hit frequency here may not be typical).
